Six1-Eya2 inh = blocks human Six1 binding to Eya2 | activity change, % (concentration not given with the values) | 360,000 tested, 0.56% active | Q15475+O00167 | AlphaScreen GST-Six1/His-Eya2 binding, biochemical; active compounds read low; control for the full effect not named in the record; in the data active = activity change below about -65%; inconclusive = about -30% to -65%; inactive = above about -30%; also: % is scaled to controls: 0 for no effect and ±100 for the full control effect
Target sequence (O00167 whole entry, looked up): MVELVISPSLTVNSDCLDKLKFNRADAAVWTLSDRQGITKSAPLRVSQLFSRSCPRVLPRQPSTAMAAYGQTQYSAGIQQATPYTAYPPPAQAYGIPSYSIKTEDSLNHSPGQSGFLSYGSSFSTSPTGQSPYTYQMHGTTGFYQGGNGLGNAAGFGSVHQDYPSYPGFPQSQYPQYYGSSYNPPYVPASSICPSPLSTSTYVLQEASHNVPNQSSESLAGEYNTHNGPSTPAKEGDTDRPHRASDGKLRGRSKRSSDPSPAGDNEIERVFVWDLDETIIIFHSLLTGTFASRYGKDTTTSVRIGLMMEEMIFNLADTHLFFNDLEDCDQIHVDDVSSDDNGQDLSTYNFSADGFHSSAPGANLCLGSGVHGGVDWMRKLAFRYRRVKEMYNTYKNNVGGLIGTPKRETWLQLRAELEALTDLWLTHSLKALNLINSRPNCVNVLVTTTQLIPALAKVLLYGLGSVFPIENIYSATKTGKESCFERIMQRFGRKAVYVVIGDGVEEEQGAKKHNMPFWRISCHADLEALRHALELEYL
Target sequence (Q15475 whole entry, looked up): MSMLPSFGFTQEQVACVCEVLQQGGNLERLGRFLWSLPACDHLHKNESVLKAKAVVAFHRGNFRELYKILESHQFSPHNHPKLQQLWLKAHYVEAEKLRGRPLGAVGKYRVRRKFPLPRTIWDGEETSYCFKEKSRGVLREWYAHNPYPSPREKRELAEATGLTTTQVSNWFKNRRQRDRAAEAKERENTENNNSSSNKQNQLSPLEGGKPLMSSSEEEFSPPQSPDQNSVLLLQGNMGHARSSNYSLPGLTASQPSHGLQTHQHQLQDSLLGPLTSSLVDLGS
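Six1/Eya2 binding was read as AlphaScreen signal after compounds were pinned into GST-Six1 plus His-tagged Eya2 (5X stock 250/500 nM) in pH 8.0 Tris/NaCl/TCEP buffer, beads added, then incubated 1 h, 37 C, dark.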
CtBP-E1A blk = blocks the CtBP interaction with E1A; 340,000 tested, 0.49% active; activity change, % (no concentration beside the values); AlphaScreen GST-E1A/His-CtBP binding, 1536-well; active compounds read low; control for the full effect not named in the record; in the data active means activity change below about -65%; inconclusive means about -30% to -65%; inactive means above about -30%; also: % is scaled to controls: 0 for no effect and ±100 for the full control effect
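Homogeneous bead-based format: GST-tagged E1A captured on glutathione donor beads, His-tagged CtBP on nickel acceptor beads; compounds precede bead addition by 2 h at 37 °C.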
D2 agonist = human D2 receptor agonism in beta-arrestin assay. activation, % (no concentration beside the values). DiscoveRx PathHunter D2 beta-arrestin, luminescence, 90 min; 100% = 57 uM dopamine signal. 360,000 tested, 0.084% active. P14416; in the data active = activation above about 40%; inconclusive = about 15% to 40%; inactive = below about 15%; also: compound concentration not given in the record; the text of the record calls up to 30% inactive
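Agonist mode: compounds alone added to overnight-plated D2 PathHunter cells for 90 min at 37 C, with 57 uM final dopamine (EC100) defining full response. Beta-arrestin recruitment detected by chemiluminescent reagent, read after 1 h at ambient temperature.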
gsp agonist = agonists of gsp mutant (McCune-Albright syndrome); Potency, µM (top dose mostly 76.9 µM), inactives show at the top dose activation (cAMP increase), most hits filed as activators; gsp mutant cells, cAMP HTRF, 30 min; control for the full effect not named in the record; 340,000 tested, 0.13% active; active = well fitted activation curve with a large enough effect; inconclusive = small, poorly fitted or top-dose-only effect, or another doubt; inactive = no such curve, though single readings can be large or run the other way; cell line not stated here;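 also: phosphodiesterase inhibitor Ro 20-1724 added with compounds to block cAMP breakdown; potency is read from the fitted curve at half-maximal effect; nearly all actives have a fitted effect of over 60% in size; about a fifth of the inactives were tested at one dose only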
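Cells in DMEM/10% FBS with G418 were pretreated with compounds in DMSO plus […] (300 uM stock) for 30 min at 37C. cAMP was measured by HTRF (cAMP-d2 plus anti-cAMP antibody-K) after 30 min at room temperature.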
D2 potentiator = human D2 receptor positive allosteric modulation | P14416 | DiscoveRx D2 beta-arrestin cells, luminescence, 90 min; 100% = 57 uM dopamine signal | potentiation, % (concentration not given with the values) | 360,000 tested, 0.23% active | AID 624464; active = potentiation of 50% or more; inconclusive = 30% to 50%; inactive = 30% or less;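 also: compound concentration not given in the record; tested on top of an EC20 dose of dopamine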
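PathHunter D2 cells, attached overnight at 37 deg C, received compound in DMSO plus dopamine at EC20 (50 nM final) for 90 min at 37 deg C. Beta-arrestin recruitment was read as luminescence after 1 h with detection reagent at ambient temperature.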
gsp antagonist = antagonizes gsp, the McCune-Albright syndrome mutation | 340,000 tested, 0.4% active | gsp-mutant cells, cAMP HTRF, 30 min; control for the full effect not named in the record | Potency, µM (titrated, usually from 76.9 µM), for inactives: at the highest dose activity change, negative = inhibition, hits mostly inhibitors; active = falling curve of any shape with a large fitted effect; inconclusive = falling curve, mostly with a smaller effect; inactive = flat or rising curve; cell line not stated here;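 also: intracellular cAMP measured with PDE inhibitor Ro 20-1724 present during compound exposure; potency is read from the fitted curve at half-maximal effect; % is scaled to controls: 0 for no effect and ±100 for the full control effect; nearly all actives have a fitted effect of over 65% in size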
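Cells, 2000/well, grown 16–24 h in DMEM 10% FBS with 0.5 mg/ml G418, then compounds plus […] (300 uM addition stock), 30 min at 37C. cAMP read by HTRF (cAMP-d2 and anti-cAMP antibody-K in lysis buffer) after 30 min RT.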
* marks the source's active call; other numbers are inactive results; [ ] = dose if it differs, or a comment.

What do the screens show for `Cc1ccc(CN2CCC(n3nccc3NC(=O)CCCc3ccccc3)CC2)o1`?
Six1-Eya2 inh: 3; CtBP-E1A blk: -3; D2 agonist: -3.4; gsp agonist: -47%[inhibitor]; D2 potentiator: -21; gsp antagonist: 2%

How did CS(=O)(=O)c1ccccc1C(=O)Nc1cc2c(cc1C(=O)O)OCCCO2 do in these assays?
Six1-Eya2 inh: 17; CtBP-E1A blk: -1; D2 agonist: -6.7; gsp agonist: 1%[15.4 µM]; D2 potentiator: 0; gsp antagonist: 1%

What do the screens show for `CCN(CC)S(=O)(=O)c1cc(C(=O)O)c(Cl)cc1Cl`?
Six1-Eya2 inh: 4; CtBP-E1A blk: -1; D2 agonist: 1.0; gsp agonist: 1%; D2 potentiator: 2; gsp antagonist: 2%

Results for COc1cccc(C(=O)NCCS(=O)(=O)N2CCCC2)c1 ?
Six1-Eya2 inh: -2; CtBP-E1A blk: -18; D2 agonist: 1.7; gsp agonist: 6%[15.4 µM]; D2 potentiator: -12; gsp antagonist: 11%

What do the screens show for `Cc1ccc(NC(=S)N(Cc2cccc(Br)c2)CC2CCC(C(=O)O)CC2)cc1` (stereo not drawn)?
Six1-Eya2 inh: -1; CtBP-E1A blk: -2; D2 agonist: 1.7; gsp agonist: 8%; D2 potentiator: -3; gsp antagonist: inconclusive

How did Cc1ccccc1N1C(=O)CC(N(O)c2ccccc2)C1=O (stereo not drawn) do in these assays?
Six1-Eya2 inh: 8; CtBP-E1A blk: -2; D2 agonist: 9.6; gsp agonist: 1%; D2 potentiator: inconclusive; gsp antagonist: -1%

Results for CC1CCc2sc3ncnc(N4CCN(CCO)CC4)c3c2C1 (stereo not drawn) ?
Six1-Eya2 inh: 2; CtBP-E1A blk: 2; D2 agonist: 3.9; gsp agonist: -15%; D2 potentiator: -20; gsp antagonist: 3%

What do the screens show for `O=C(OCc1cc(=O)n2ccsc2n1)C1(c2ccc(Cl)cc2)CC1`?
Six1-Eya2 inh: 4; D2 agonist: -3.1; gsp agonist: 7%; D2 potentiator: -4; gsp antagonist: 4%

Results for Cc1ccc(NC(=S)N(Cc2ccc(Cl)cc2)Cc2ccc(C(=O)O)cc2)cc1Cl ?
Six1-Eya2 inh: 0; D2 agonist: -7.6; gsp agonist: inconclusive; D2 potentiator: -31; gsp antagonist: inconclusive

How did CC(C)[C@H](NC(=O)Nc1ccc(Oc2ccccc2)cc1)C(=O)O do in these assays?
Six1-Eya2 inh: 15; CtBP-E1A blk: -2; D2 agonist: -3.9; gsp agonist: -12%; D2 potentiator: -4; gsp antagonist: 9%

How did NC(=O)CSc1nc2ccccc2c(=O)n1CCc1ccccc1 do in these assays?
Six1-Eya2 inh: 4; CtBP-E1A blk: 3; D2 agonist: -1.3; gsp agonist: 0%; D2 potentiator: -6; gsp antagonist: 7%

Results for Cc1ccc(N(CC(=O)Nc2ccc(C)cn2)S(=O)(=O)c2c(C)nn(C)c2C)cc1 ?
Six1-Eya2 inh: -2; CtBP-E1A blk: -6; D2 agonist: -3.1; gsp agonist: 21%; D2 potentiator: 1; gsp antagonist: -3%

What do the screens show for `COC(C/C=C/C(=O)[C@H](C)OCc1ccccc1)OC`?
Six1-Eya2 inh: 7; CtBP-E1A blk: 5; D2 agonist: -1.4; D2 potentiator: -6; gsp antagonist: 8%

What do the screens show for `CCOc1cc(N2CCOCC2)c(OCC)cc1NC(=O)COC(=O)c1ccc([N+](=O)[O-])o1`?
Six1-Eya2 inh: -7; CtBP-E1A blk: -1; D2 agonist: 4.1; gsp agonist: -3%[15.4 µM]; D2 potentiator: inconclusive; gsp antagonist: -2%

Results for Cn1c(=O)[nH]c(NC2CCCCC2)c(N=O)c1=O ?
Six1-Eya2 inh: -8; CtBP-E1A blk: -18; D2 agonist: -5.5; gsp agonist: -5%[15.4 µM]; D2 potentiator: -8; gsp antagonist: 0%

Results for C[C@H](C[C@H](O)[C@H]1OC1(C)C)C1=C2C[C@H](O)C3[C@@]4(C)CCC(=O)C(C)(C)C4CC[C@]3(C)[C@@]2(C)CC1 (stereo partly drawn) ?
Six1-Eya2 inh: -7; CtBP-E1A blk: 5; D2 agonist: 0.7; D2 potentiator: -2; gsp antagonist: -5%

What do the screens show for `CCOc1ccc(NC(=O)COc2nsnc2N2CCCCC2)cc1`?
Six1-Eya2 inh: -4; CtBP-E1A blk: 7; D2 agonist: -1.5; gsp agonist: -29%; D2 potentiator: 10; gsp antagonist: 7%

How did CN1CCN(c2nc3c(c(=O)[nH]c(=O)n3C)n2CCSc2nc3ccccc3s2)CC1 do in these assays?
Six1-Eya2 inh: 5; CtBP-E1A blk: 1; D2 agonist: -2.9; gsp agonist: -3%; D2 potentiator: -17; gsp antagonist: -7%

What do the screens show for `Cc1ccc(C(=O)N/C(=C/c2ccco2)C(=O)O)cc1`?
Six1-Eya2 inh: 13; CtBP-E1A blk: -2; D2 agonist: -2.8; gsp agonist: -80%[inhibitor]; D2 potentiator: -11; gsp antagonist: 9%

What do the screens show for `CCCC[C@@H](CNC)NC[C@H](NCCCCC1CCCCC1)C(C)C`?
Six1-Eya2 inh: -2; CtBP-E1A blk: 0; D2 agonist: -0.6; D2 potentiator: -5; gsp antagonist: 12%

What do the screens show for `Cn1c(=O)n(C)c2cc(/C=C3/SC(=O)N(CC(=O)N4CCOCC4)C3=O)ccc21`?
Six1-Eya2 inh: -6; CtBP-E1A blk: 2; D2 agonist: -4.0; gsp agonist: 0%[15.4 µM]; D2 potentiator: -8; gsp antagonist: 2%

What do the screens show for `CCCNC(=S)Nc1ccc(Br)cc1`?
Six1-Eya2 inh: 1; CtBP-E1A blk: -1; D2 agonist: 3.4; gsp agonist: -23%; D2 potentiator: -2; gsp antagonist: -10%

How did CCCCCc1cc(=O)oc2c(C(CCN(CC)CC)c3ccc(OC)cc3)c(OC)cc(OC)c12 (stereo not drawn) do in these assays?
Six1-Eya2 inh: -6; CtBP-E1A blk: 0; D2 agonist: -1.5; D2 potentiator: -81; gsp antagonist: 4%

Results for C[C@@H]1CN(c2c(F)c(F)c3c(=O)c(C(=O)O)cn(C4CC4)c3c2F)C[C@H](C)N1 ?
Six1-Eya2 inh: 0; CtBP-E1A blk: 9; D2 agonist: 14; gsp agonist: -5%; D2 potentiator: 1; gsp antagonist: 13%

How did CC(C)Oc1ccc(C(=O)OCC(=O)NCCNC(=O)COC(=O)c2ccc(OC(C)C)cc2)cc1 do in these assays?
Six1-Eya2 inh: -3; CtBP-E1A blk: inconclusive; D2 agonist: 1.6; gsp agonist: 22%; D2 potentiator: -6; gsp antagonist: -6%

How did CN(CCc1ccccc1)C1CCCN(S(=O)(=O)CC(F)(F)F)C1 (stereo not drawn) do in these assays?
Six1-Eya2 inh: 0; CtBP-E1A blk: -2; D2 agonist: 7.0; gsp agonist: -51%[inhibitor]; D2 potentiator: -15; gsp antagonist: -1%

What do the screens show for `CN(C)CCCNc1ccc(-c2nn(C)c(=O)c3ccccc23)cc1[N+](=O)[O-]`?
Six1-Eya2 inh: 6; CtBP-E1A blk: 1; D2 agonist: -3.3; gsp agonist: -1%[15.4 µM]; D2 potentiator: -13; gsp antagonist: 10%

What do the screens show for `COc1ccc(OCC(=O)N2CCN(C(=O)COc3ccccc3)CC2)cc1`?
Six1-Eya2 inh: -3; CtBP-E1A blk: 5; D2 agonist: -1.6; gsp agonist: 27%; D2 potentiator: -11; gsp antagonist: -2%

How did COc1ccc(-n2cc(-c3ccccc3)c3c(N4CCN(CCO)CC4)ncnc32)cc1 do in these assays?
Six1-Eya2 inh: 1; CtBP-E1A blk: 9; D2 agonist: -1.7; gsp agonist: 1%; D2 potentiator: -7; gsp antagonist: -21%

How did FC(F)(F)c1cccc(Oc2nc(-c3ccccc3)nnc2C(F)(F)F)c1 do in these assays?
Six1-Eya2 inh: -1; CtBP-E1A blk: 11; D2 agonist: -3.1; gsp agonist: -44%; D2 potentiator: -4; gsp antagonist: -13%

How did CCC1(C(=O)OC)CCc2c(cc(OC)c3ccccc23)C1=O (stereo not drawn) do in these assays?
Six1-Eya2 inh: 15; CtBP-E1A blk: 16; D2 agonist: -1.1; gsp agonist: -8%[15.4 µM]; D2 potentiator: 4; gsp antagonist: -7%

Results for CC(=O)NCC(=O)N1CCCC(C(=O)c2ccc(Oc3ccccc3)cc2)C1 (stereo not drawn) ?
Six1-Eya2 inh: -4; CtBP-E1A blk: 3; D2 agonist: -3.7; gsp agonist: -5%[15.4 µM]; D2 potentiator: -3; gsp antagonist: 0%

What do the screens show for `CSc1nnc(-c2ccco2)c(-c2ccco2)n1`?
Six1-Eya2 inh: -19; CtBP-E1A blk: -14; D2 agonist: 0.7; gsp agonist: 15%; D2 potentiator: -3; gsp antagonist: 9%

Nothing new here: 7 of the compounds above.
What do the screens show for `CN(C)CCCNc1ccc(-c2nn(C)c(=O)c3ccccc23)cc1[N+](=O)[O-]`?
Six1-Eya2 inh: 6; CtBP-E1A blk: 1; D2 agonist: -3.3; gsp agonist: -1%[15.4 µM]; D2 potentiator: -13; gsp antagonist: 10%

What do the screens show for `COc1ccc(OCC(=O)N2CCN(C(=O)COc3ccccc3)CC2)cc1`?
Six1-Eya2 inh: -3; CtBP-E1A blk: 5; D2 agonist: -1.6; gsp agonist: 27%; D2 potentiator: -11; gsp antagonist: -2%

How did COc1ccc(-n2cc(-c3ccccc3)c3c(N4CCN(CCO)CC4)ncnc32)cc1 do in these assays?
Six1-Eya2 inh: 1; CtBP-E1A blk: 9; D2 agonist: -1.7; gsp agonist: 1%; D2 potentiator: -7; gsp antagonist: -21%

How did FC(F)(F)c1cccc(Oc2nc(-c3ccccc3)nnc2C(F)(F)F)c1 do in these assays?
Six1-Eya2 inh: -1; CtBP-E1A blk: 11; D2 agonist: -3.1; gsp agonist: -44%; D2 potentiator: -4; gsp antagonist: -13%

How did CCC1(C(=O)OC)CCc2c(cc(OC)c3ccccc23)C1=O (stereo not drawn) do in these assays?
Six1-Eya2 inh: 15; CtBP-E1A blk: 16; D2 agonist: -1.1; gsp agonist: -8%[15.4 µM]; D2 potentiator: 4; gsp antagonist: -7%

Results for CC(=O)NCC(=O)N1CCCC(C(=O)c2ccc(Oc3ccccc3)cc2)C1 (stereo not drawn) ?
Six1-Eya2 inh: -4; CtBP-E1A blk: 3; D2 agonist: -3.7; gsp agonist: -5%[15.4 µM]; D2 potentiator: -3; gsp antagonist: 0%

What do the screens show for `CSc1nnc(-c2ccco2)c(-c2ccco2)n1`?
Six1-Eya2 inh: -19; CtBP-E1A blk: -14; D2 agonist: 0.7; gsp agonist: 15%; D2 potentiator: -3; gsp antagonist: 9%

Source: PubChem BioAssay (National Center for Advancing Translational Sciences (NCATS))
